High-throughput results (PubChem BioAssay)
D2 ag: Beta-Arrestin HTS for Positive Allosteric Modulators of the Human D2 Dopamine Receptor: Agonists. DiscoveRx PathHunter D2 beta-arrestin, luminescence, 90 min; 100% = 57 uM dopamine signal. activation, % (concentration not given with the values). 360,000 compounds, 0.084% hits. AID 624465, 2012; in the data active = activation above about 40%; inconclusive = about 15% to 40%; inactive = below about 15%; note: the text of the record calls up to 30% inactive
Target sequence (P14416 whole entry, looked up): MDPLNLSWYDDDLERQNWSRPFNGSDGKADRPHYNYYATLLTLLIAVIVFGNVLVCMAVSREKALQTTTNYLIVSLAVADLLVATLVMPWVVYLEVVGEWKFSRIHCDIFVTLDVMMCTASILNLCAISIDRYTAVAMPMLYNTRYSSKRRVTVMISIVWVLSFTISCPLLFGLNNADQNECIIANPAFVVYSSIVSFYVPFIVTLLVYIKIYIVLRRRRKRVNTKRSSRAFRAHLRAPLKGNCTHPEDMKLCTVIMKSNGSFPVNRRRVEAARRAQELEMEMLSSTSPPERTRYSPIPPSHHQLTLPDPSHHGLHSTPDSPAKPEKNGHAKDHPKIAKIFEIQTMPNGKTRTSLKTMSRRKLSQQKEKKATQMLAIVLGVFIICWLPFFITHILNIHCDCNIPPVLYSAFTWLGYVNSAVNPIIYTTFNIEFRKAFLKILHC
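Agonist mode: compounds alone added to overnight-plated D2 PathHunter cells for 90 min at 37 C, with 57 uM final dopamine (EC100) defining full response. Beta-arrestin recruitment detected by chemiluminescent reagent, read after 1 h at ambient temperature.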
PINK1 modulator: A Quantitative High throughput Screen to Identify Chemical Modulators of PINK1 Expression; PINK1 immunofluorescence, high-content cytometry, 24 h; 410,000 compounds, 0.2% hits; Potency, µM (titrated, usually from 76.6 µM), for inactives: at the highest dose activation (PINK1 increase), hits mostly activators; AID 624263, 2012; active = well fitted activation curve with a large enough effect; inconclusive = small, poorly fitted or top-dose-only effect; inactive = flat fitted curve, though single readings scatter; cell line not stated here;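 note: potency is the fitted concentration of half-maximal effect; % of control where 0% means no effect; nearly all actives have a fitted effect of over 65% in size; a mitochondrial uncoupler was the plate control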
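Compound titrations (5 concentrations, 24 h) on a stable cell line; DMSO and CCCP controls. Endpoint: fixed-cell PINK1 immunofluorescence with mitochondrial, cell and nuclear markers, scanned by microplate cytometer.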
gsp ag: qHTS for Agonist of gsp, the Etiologic Mutation Responsible for Fibrous Dysplasia/McCune-Albright Syndrome: qHTS; AID 624287, 2012; Potency, µM (highest dose often 76.9 µM), for the others: at the top dose activation (cAMP increase), most hits filed as activators; gsp mutant cells, cAMP HTRF, 30 min; control for the full effect not named in the record; 340,000 compounds, 0.13% hits; active = well fitted activation curve with a large enough effect; inconclusive = small, poorly fitted or top-dose-only effect, or another doubt; inactive = no such curve, though single readings can be large or run the other way; cell line not stated here;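 note: phosphodiesterase inhibitor Ro 20-1724 added with compounds to block cAMP breakdown; potency is the fitted concentration of half-maximal effect; nearly all actives have a fitted effect of over 60% in size; about a fifth of the inactives were tested at one dose only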
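Cells stably selected in G418 were plated at 2000/well, grown 16-24 hr, then given compounds in DMSO with the PDE inhibitor […] (300 uM solution added) for 30 min at 37C; cAMP was read by HTRF.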
Menin MLL FP FL: qHTS Assay for Inhibitors Targeting the Menin-MLL Interaction in MLL Related Leukemias: Competition With Fluorescein Labeled MLL-derived Peptide. Fluorescence polarization, fluorescein-MLL peptide displacement from menin. FP activity change, % at 61.4 µM. 290,000 tested, under 10 active; inconclusive = falling polarisation curve, or a change in total fluorescence; inactive = total fluorescence flat and polarisation flat or rising; no compound was filed as active; the % refers to the polarisation; negative = inhibition;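 note: % of control where 0% means no effect; inhibitors lower the polarisation; unlabelled MLL peptide was the positive control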
Sfp inh: qHTS Assay for Inhibitors of Bacillus subtilis Sfp phosphopantetheinyl transferase (PPTase); 4'-phosphopantetheinyl transferase ffp (Bacillus subtilis), Q9F4F7; Biochemical Sfp PPTase activity, qHTS; Potency, µM, for the others: max response, negative = inhibition, usual class: inhibitors; 310,000 compounds, 3.5% hits; AID 1490, 2009; active = well fitted inhibition curve with a large enough effect; inconclusive = small, poorly fitted or top-dose-only effect, or another doubt; inactive = no such curve, though single readings can be large or run the other way;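 note: the enzyme is Sfp with the accession as filed and its product quenches rhodamine fluorescence; potency is the fitted concentration of half-maximal effect; 0% = enzyme reaction without inhibitor and -100% = no enzyme wells; top concentration of the series not given in the record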
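With Hepes-Na pH 7.6 buffer containing 10 mM MgCl2, Sfp (15 nM) modified BHQ-2-YbbR (12.5 uM) using rhodamine-CoA (5 uM). Two reads 30 minutes apart at 525/598 nm yielded each well's rate.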
gsp antag: qHTS for Antagonists of gsp, the Etiologic Mutation Responsible for Fibrous Dysplasia/McCune-Albright Syndrome: qHTS. gsp-mutant cells, cAMP HTRF, 30 min; control for the full effect not named in the record. Potency, µM (series often up to 76.9 µM), without a hit: top-dose activity change, negative = inhibition, hits mostly inhibitors. 340,000 compounds, 0.4% hits. AID 624288, 2012; active = falling curve of any shape with a large fitted effect; inconclusive = falling curve, mostly with a smaller effect; inactive = flat or rising curve; cell line not stated here;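 note: intracellular cAMP measured with PDE inhibitor Ro 20-1724 present during compound exposure; potency is the fitted concentration of half-maximal effect; % is set by controls: 0 for no effect and ±100 for the full control effect; nearly all actives have a fitted effect of over 65% in size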
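G418-selected cells were plated in DMEM/10% FBS for 16-24 h at 37C, then treated with compounds plus the PDE inhibitor […] (300 uM solution added) for 30 min at 37C. Intracellular cAMP was measured by HTRF after 30 min lysis at room temperature.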
ClpP mod: qHTS Assay for Activators of ClpP; ATP-dependent Clp protease proteolytic subunit (Bacillus subtilis (strain 168)), P80244; purified B. subtilis ClpP, FRET peptide cleavage, 20 min; Potency, µM (top dose mostly 57.5 µM), for the others: at the highest dose activity change, negative = active; 340,000 compounds, 1.9% hits; active = well fitted falling curve with a large enough effect; inconclusive = small, poorly fitted or top-dose-only effect; inactive = no such curve, though single readings can be large or run the other way; note: potency is the fitted concentration of half-maximal effect; the source files actives as falling curves though it sought activators and does not explain the sign; nearly all actives have a fitted effect of over 65% in size; many hits overshoot -100%
Target sequence (P80244 whole entry, looked up): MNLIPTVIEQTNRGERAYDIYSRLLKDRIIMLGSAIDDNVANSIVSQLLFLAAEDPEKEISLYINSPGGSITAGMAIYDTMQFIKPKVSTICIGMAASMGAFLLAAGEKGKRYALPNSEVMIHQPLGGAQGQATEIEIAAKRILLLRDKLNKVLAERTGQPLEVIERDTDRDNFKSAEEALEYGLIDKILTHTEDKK
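ClpP 10 microg/mL final, pH 8 Tris/KCl buffer with BSA, glycerol, Tween-20; compound pinned in; FRET-FV substrate; RT 20 min; Ex320/Em430; ΔFRET vs ADEP 5.8 microM, DMSO, no enzyme.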
Active calls of the source: *; ? = inconclusive; · = not tested or not shown; & = joins results of further samples; [ ] = another dose, or the depositor's remark.

Start of the data: the first 3 entries, to show the layout:
SMILES	D2 ag	PINK1 modulator	gsp ag	Menin MLL FP FL	Sfp inh	gsp antag	ClpP mod
CCOC(=O)N1CCC(NC(=O)CSCc2nc(-c3ccc(OC)cc3)oc2C)CC1	-0.1	-0.8%	10%	2.6	7%	-15%	3.1%
Cc1c(NS(=O)(=O)c2ccc3c(c2)c(=O)n(C)c(=O)n3C)c(=O)n(-c2ccccc2)n1C	-2.8	-0.1%	2%[15.4 µM]	0.3	9%	8%	?
COc1ccc(C(C)=O)cc1CC(=O)Nc1ccccc1-c1ccccc1	-5.8	-0.6%	-30%	8.6	15%	-34%	2.3%

The listing, from the first entry:
SMILES	D2 ag	PINK1 modulator	gsp ag	Menin MLL FP FL	Sfp inh	gsp antag	ClpP mod
CCOC(=O)N1CCC(NC(=O)CSCc2nc(-c3ccc(OC)cc3)oc2C)CC1	-0.1	-0.8%	10%	2.6	7%	-15%	3.1%
Cc1c(NS(=O)(=O)c2ccc3c(c2)c(=O)n(C)c(=O)n3C)c(=O)n(-c2ccccc2)n1C	-2.8	-0.1%	2%[15.4 µM]	0.3	9%	8%	?
COc1ccc(C(C)=O)cc1CC(=O)Nc1ccccc1-c1ccccc1	-5.8	-0.6%	-30%	8.6	15%	-34%	2.3%
COc1ccc(C2=CSC3=C(C(=O)c4cccc(S(=O)(=O)N(C)C)c4)CCN23)cc1	-2.7	-3.2%	-19%	2.2	1%	-8%	-0.6%
COc1cccc(S(=O)(=O)Nc2ccc(C(=O)N3CCOCC3)cc2)c1	-0.7	-2.8%[38.3 µM]	20%	-0.7	-8%	3%	0.7%
CN(CC(=O)Nc1ccccc1Cl)C(=O)CSc1nncn1C	-3.5	-1.4%	3%	·	·	1%	-0.2%
COc1cc(-c2cc(NC(C)=O)c3ncc(-c4ccc(C(C)=O)cc4)n3c2)cc(OC)c1OC	11	1.5%	·	·	·	·	?
CC1CCCN(C(=O)c2ccc3c(c2)C(=O)N(CCC2=CCCCC2)C3=O)C1 (stereo unspecified)	-4.0	1.2%	-3%	0.5	-25%	-10%	-1.7%
COc1cccc(N/C(SCc2ccccc2F)=C(/C#N)C(=O)NCc2cccs2)c1	-1.8	-0.9%	?	2.6	15%	-2%	-3.2%
Cc1cc(NC(=O)CSc2nnc(C(C)N(C)C)n2Cc2ccccc2)no1 (stereo unspecified)	-0.8	0.0%	-30%	-0.4	8%	3%	-1.8%
CCCc1ccc(C(O)c2ncc(-c3ccc(OC)cc3)[nH]2)cc1 (stereo unspecified)	-4.8	4.1%	·	·	·	·	-20%
O=C(Nc1cccc(S(=O)(=O)NC2=NCCC2)c1)c1ccc(OC(F)F)cc1	-4.2	2.1%	15%	·	·	4%	-1.7%
Cc1ccc(OCc2nnc(SCC(=O)Nc3cc(C)on3)n2C)cc1	-0.7	3.3%[38.3 µM]	15%	3.9	14%	17%	2.2%
Cc1nc(C)c(C(=O)NNC(=O)Nc2ccc(Cl)cc2)s1	-4.3	0.9%	0%	2.5	-2%	3%	1.6%
Nn1c(Cc2ccccc2F)nnc1SCn1nnc2ccccc2c1=O	-0.9	0.5%	20%	0.1	3%	-8%	-2.6%
CCc1ccc(/C=C2/C(=O)N(C)C(=S)N2CC(=O)OC)s1	-3.1	8.1%	27%	6.9	-19%	-1%	0.3%
O=C(Nc1ccc(S(=O)(=O)N2CCOCC2)cc1)c1cc([N+](=O)[O-])ccc1Cl	7.0	-1.5%	-26%	-3.9	11%	?	·
O=C(CCN1C(=O)c2cccc3cccc(c23)C1=O)Nc1ccon1	4.9	12%	?	-0.6	10%	-24%	·
Cc1cc(C)nc(SCCN2CCOCC2)n1	-0.1	-1.1%	-26%	1.6	16%	12%	0.1%
COc1ccc(CNC(=O)C(=O)NCCCn2ccnc2)cc1	-5.3	0.1%	-31%[inhibitor]	-0.2	7%	18%	-1.9%
O=[N+]([O-])c1cccnc1N1CCC(c2cc(-c3ccc(Cl)cc3)n[nH]2)CC1	-1.1	8.7%	14%[15.4 µM]	-11	?	-4%	0.5%
Cn1c(=O)c2c(nc(Oc3ccccc3)n2C)n(C)c1=O	-3.5	-2.1%	?	0.1&3.3	24%&19%	3%	0.5%
O=C(NCC(=O)N1CCCCCC1)c1ccc(Br)cc1	7.9	0.2%	-28%	0.1	12%	10%	·
Cc1nn2c(N)c(-c3ccccc3)cnc2c1-c1ccccc1	-1.6	6.3%	4%[15.4 µM]	-0.1	1%	0%	-1.6%
CC1CC1C(=O)OCC(=O)c1c(N)n(C)c(=O)n(C)c1=O (stereo unspecified)	-19	-1.2%	?	-0.5	-1%	7%	-0.4%
COc1ccc(NC(=O)N2CCN(S(C)(=O)=O)CC2)c(OC)c1	2.8	0.0%	13%[15.4 µM]	0.9	9%	14%	·
CCNC(=S)N1CCC(C(=O)c2ccc(F)cc2)CC1	-1.6	2.2%	-26%	·	·	·	-0.4%
COc1cc(CCC(=O)Nc2cccc(S(=O)(=O)N(C)C)c2)cc(OC)c1OC	-2.5	8.3%	9%	5.1	-1%	-13%	-1.5%
O=C(CSc1ncc(-c2ccc(F)cc2)[nH]1)NCc1ccco1	-1.5	·	-56%[inhibitor]	3.6	6%	0%	-0.9%
Cc1nc2c3ccccc3nc(NNC(=O)CCC(=O)N3CCCC(C)C3)n2n1 (stereo unspecified)	-1.2	3.3%	?	·	7%	-9%	0.7%
C/C(=N/NC(=O)OC(C)(C)C)c1ccco1	2.2	-3.0%	30%	-4.4	-18%	8%	-3.8%
Cc1ccc(C(=O)c2ccccc2C(=O)OCC(=O)N2CCCC2)cc1	1.6	-0.2%	19%	·	·	1%	·
O=C(NNC(=S)Nc1ccc(Cl)cc1Cl)c1cccnc1	-4.0	-0.9%	-36%[inhibitor]	·	·	-13%	1.2%
CCc1nnc(NC(=O)C2CCCN2S(=O)(=O)c2ccc(C)cc2)s1 (stereo unspecified)	-0.4	2.1%	0%	-0.5	16%	-17%	-0.6%
O=C(CNC(=O)c1cccs1)N/N=C/c1cccc(Br)c1	-4.9	0.3%	-3%	0.2	-1%	11%	2.1%
CCOC(=O)N1CCC(N2CCN(S(=O)(=O)c3ccc(Cl)cc3)CC2)CC1	-1.0	0.3%[38.3 µM]	?	4.3	50µM*	1%	0.8%
Cc1cccc(NC(=O)C2c3ccccc3C(=O)N3CCc4ccccc4C23)n1 (stereo unspecified)	-2.9	11%[38.3 µM]	5%	2.5	3%	-14%	-1.4%
COc1ccc(CN2CCN(C(C)C)C(CCO)C2)cc1Cn1cccn1 (stereo unspecified)	-2.2	-0.7%	-2%[15.4 µM]	1.8	2%	-12%	·
CCOC(=O)CN1C(=O)C(O)=C(C(C)=O)C1c1ccc([N+](=O)[O-])cc1 (stereo unspecified)	-2.3	0.6%	18%	-0.4	-11%	-14%	-0.8%
Cc1cc(=O)c2ccccc2s1	-2.1	5.4%[38.3 µM]	-29%	-2.0	5%	-1%	-3.6%
Cc1ccc(NC(=O)CSCC(=O)Nc2ccc(N3CCOCC3)cc2N2CCOCC2)cc1	-2.3	-0.9%	8%[15.4 µM]	·	·	1%	-0.9%
CC1=C(C(=O)Nc2cccc(C(=O)NC3CCCC(C)C3C)c2)SCCO1 (stereo unspecified)	-4.7	0.1%	-32%[inhibitor]	·	15%	-24%	-2.3%
N#CC(C#N)=Cc1ccc(OCC(=O)N2CCOCC2)cc1	-6.6	1.3%	-3%[15.4 µM]	-2.6	1%	-8%	·
CCS(=O)(=O)c1ccc(O)c(NC(=O)COc2ccc(OC)cc2)c1	-1.7	2.4%	21%	1.6	19%	-5%	-20%
CC1CCN(S(=O)(=O)c2ccc3c(c2)n(C)c(=O)n3C)CC1	-0.9	1.7%	-17%	-1.3	3%	5%	-1.4%
CCN([C@H](CO)CC(C)C)S(=O)(=O)c1ccccc1	-7.5	0.1%	·	·	·	-5%	-1.9%
CCN(CC)S(=O)(=O)c1ccc(N2CCOCC2)c(NC(=O)COc2ccccc2C)c1	4.8	4.0%	2%	·	·	-15%	-1.6%
COC(=O)C1=C(C)NC(=O)/C1=C\c1cc(C)n(-c2cccc(C)c2)c1C	0.1	-0.3%	21%	?	?	-6%	-0.9%
Cc1cc(NC2CCCCC2)nc(NCc2ccccc2)n1	-5.3	?	?	0.9	-22%	?	-5.9%
CCOC(=O)CN(C(=O)CSc1nnc(CNc2ccc(C)cc2C)n1CC)c1ccccc1	-2.2	-0.9%	-5%	1.6	0%	-2%	7.0%
(further entries)
SMILES	D2 ag	PINK1 modulator	gsp ag	Menin MLL FP FL	Sfp inh	gsp antag	ClpP mod
CN(C)S(=O)(=O)c1ccc(NC(=O)Cn2ccsc2=N)cc1	-4.6	1.0%	0%	-5.6	-20%	4%	1.0%
CC(=O)c1ccc(Oc2ncnc(N)c2[N+](=O)[O-])cc1	1.0	-0.6%	4%	-0.7	12%	-6%	·
COc1ccc(C2CCCN2CC(O)COc2ccccc2C(C)C)cc1 (stereo unspecified)	3.7	27%	?	6.8	1%	3%	·
O=C1NCC(O)=C1C=NC12CC3CC(CC(C3)C1)C2	-2.6&2.2	-5.1%[38.3 µM]	-2%&-47%	5.5&0.0	9%&3%	-2%&-3%	-6.8%&-0.9%
CCOc1nc(NC(=O)NS(=O)(=O)c2cccc(Cl)c2)nc(-c2ccccc2)n1	1.7	2.6%	1%	1.4	2%	7%	28µM*
COc1ccc(NS(=O)(=O)c2ccc3nc(COc4cccc5ccccc45)[nH]c3c2)cc1	9.0	0.1%	3%	3.8	-29%	-8%	-2.2%

Outcome played no part in choosing rows; any-hit rate near 5.1%.
